H5N1 CPE: MDCK cell protection from H5N1 avian flu. inhibition, % at 50 µM. cytopathic effect, luminescence, 72 h; stronger effect = higher value; no value below 0 was filed and about half of the inactive calls have no number; reference of the scale not given here. hit rate 0.07% among 96,000; in the data active = inhibition above about 25%
Numbers without * were called inactive; i = inactive.

Structure | H5N1 CPE
COc1ccc(S(=O)(=O)N(C)CC(=O)Nc2cccc(C(C)=O)c2)cc1C | 1.5
C=CCCCCCCCCC(=O)NN | i
CCSc1nnc2n1C(C)(C)Cc1ccccc1-2 | i
O=C(CC1CCCCC1)OCn1nnc2ccccc2c1=O | 0.1
Cc1[nH]c2ccccc2c1NC(=O)CN1CCN(Cc2ccc3c(c2)OCO3)CC1 | i
CCOC(=O)c1sc(N)nc1-c1ccccc1 | i
COc1ccc(-n2c(C)n[nH]c2=O)cc1OC | i
COc1cc(/C=N/NC(=O)CCc2c(C)n[nH]c2C)cc(OC)c1OC | 1.6
Cc1ccccc1N1C(=O)C(Cl)=C(N2CCN(c3ccccc3)CC2)C1=O | i
CCc1ccc(OC)c(S(=O)(=O)NCCOc2ccccc2)c1 | i
COc1ccc(Cl)cc1-n1c(=S)sc2c(=O)[nH]c(SCC(=O)NCC3CCCO3)nc21 (configuration not stated) | i
N#Cc1nc(-c2ccc(Cl)cc2)oc1NCCc1ccccn1 | i

Next compounds follow.
Structure | H5N1 CPE
Cc1cc(C)c2[nH]c(=O)c(C(c3nnnn3Cc3ccc4c(c3)OCO4)N3CCC(C)CC3)cc2c1 (configuration not stated) | 0.6
O=c1c(-c2nnc(SCc3ccc(Cl)cc3)o2)cccn1Cc1ccccc1 | 0.6
CC(C(=O)N(C)C)N(C#N)c1nc(N(C)C)nc(N(C)C)n1 (configuration not stated) | 0.3
CC(C(=O)Nc1sccc1C(N)=O)N1C(=O)C2CC=CCC2C1=O (configuration not stated) | 0.6
CC(=O)c1ccc(N2C(=O)NC3(CCCCC3)C2=O)cc1 | 0.1
Nc1nnc(COc2cccc(C(F)(F)F)c2)s1 | i
Cc1nc(OCc2ccccc2)c2ccccc2n1 | 0.8
CCOC(=O)CNC(=O)CSc1ncnc2c1cnn2-c1ccc(Cl)cc1 | i
Cc1nnc(NC(=O)c2ccc(C)c(S(=O)(=O)N3CCCCCC3)c2)s1 | 0.2
CCOc1ccc(C(C#N)N2CCOCC2)cc1OC (configuration not stated) | i
COc1ccc(OC)c(S(=O)(=O)Nc2ccc3oc4c(c3c2)C(=O)CCC4)c1 | 0.1
COC(=O)CCC(=O)c1oc2ccc(Cl)cc2c1NC(=O)CCCN1C(=O)c2ccccc2C1=O | 0.7

The final three records of the part before come first, to join the parts.
Structure | H5N1 CPE
CCOc1ccc(C(C#N)N2CCOCC2)cc1OC (configuration not stated) | i
COc1ccc(OC)c(S(=O)(=O)Nc2ccc3oc4c(c3c2)C(=O)CCC4)c1 | 0.1
COC(=O)CCC(=O)c1oc2ccc(Cl)cc2c1NC(=O)CCCN1C(=O)c2ccccc2C1=O | 0.7
COc1ccc2cc(C(=O)N3CCOCC3)sc(=O)c2c1OC | 0.1
c1ccc(Cc2nc3ccccc3o2)cc1 | 0.1
COC(CNC(=O)c1cc(C)nn1-c1ccccc1)OC | 0.6
Cc1cccc(NC(=O)c2ccc(NS(=O)(=O)c3c(C)noc3C)cc2)c1 | 0.5
CC1NC(=O)N(C)C2NC(=O)N(C)C(c3ccccc3)C12 (configuration not stated) | 0.1
CCOc1cc(C(c2c(C)[nH][nH]c2=O)c2c(C)[nH][nH]c2=O)ccc1OS(=O)(=O)c1ccccc1 | i
COC(=O)c1[nH]c2cc(OC)ccc2c1NC(=O)CCN1CCN(Cc2ccc3c(c2)OCO3)CC1 | i
CCNc1nc(OCCNC(C)=O)nc(N(C)C)n1 | 0.7
CCOC(=O)Nc1ccc2c(C)cc(=O)oc2c1 | i
CNS(=O)(=O)c1cccc(C(=O)NCC(c2cccs2)N(C)C)c1 (configuration not stated) | 0.9
COc1ccc(C(=O)N2CCN=C2SCc2cccnc2)cc1OC | 2.9
CCCCn1nnnc1NCc1ccc(OC)c(OC)c1OC | i

Following part
Structure | H5N1 CPE
Cc1ccc(N=C2NC(=O)CS2)c(C)c1 | 0.4
Cc1cc(C)c(NC(=O)C2CCCCN2C)c(C)c1 (configuration not stated) | 1.7
O=C(CSc1nnc(-c2cccnc2)n1Cc1ccco1)c1ccc2ccccc2c1 | 2.4
COc1ccc(-c2nnc(-c3ccc(N)cc3)o2)cc1 | i
O=C(C1COc2ccccc2O1)N1CCn2c(nc3ccccc32)C1 (configuration not stated) | 0.7
Cc1ccc(N=Cc2nc(-c3ccco3)oc2O)cc1 | i
CCOC(=O)Cn1c(=NC(=O)CSC(C)=O)sc2cc(F)ccc21 | 0.5
Cn1nc(-c2ccc(Cl)cc2)c2cc(C(=O)N3CCCC3)sc21 | i
Cc1ccc2nc(-c3ccc(NC(=O)CSc4ccccc4)cc3)[nH]c2c1 | i
CC1Cc2ccccc2N1C(=O)Cn1nnc(-c2ccccc2NC(=O)C2CCC2)n1 (configuration not stated) | i
COc1ccc(Cc2nnc(SC)[nH]c2=O)cc1OC | i
CCNc1nc(NCC)nc(ON=C(C)C)n1 | 0.4

2 entries from above, as labelled records.
> CCOc1ccc(C(C#N)N2CCOCC2)cc1OC (configuration not stated)
  H5N1 CPE: i
> COc1ccc(OC)c(S(=O)(=O)Nc2ccc3oc4c(c3c2)C(=O)CCC4)c1
  H5N1 CPE: 0.1

Next results:
Structure | H5N1 CPE
O=C(NCc1ccccn1)C1CCCN(S(=O)(=O)c2cccc3nsnc23)C1 (configuration not stated) | 0.8
CC1=NC(C(F)(F)F)(C(F)(F)F)C(C#N)=C(C)N1 | i
COc1ccc(OC)c(-n2c(CNC3CCN(Cc4ccccc4)CC3)nc3ccccc3c2=O)c1 | 1.9
Cc1ccc(-c2cn3c(=O)cc(C)[nH]c3n2)cc1 | 2.4
COc1nnc(-c2ccc(N3CCCCC3)c(NC(=O)C3CCCCC3)c2)c2ccccc12 | 5.3
CC(=O)N1CCC(C(=O)c2ccc(Cl)cc2)CC1 | 0.7
CC1=C(C(=O)OC(C)(C)C)C(c2ccco2)C(C#N)=C(N)O1 (configuration not stated) | i
O=C(NCC1CCCO1)c1c(O)c2cccc3c2n(c1=O)CCC3 (configuration not stated) | 0.8
Cc1ccc(-c2sc(C)nc2CC(=O)O)cc1 | 0.6
CSC(=CC(=O)c1ccccc1)SC | 4.4
COc1ccc(C(=O)C(CN2CCOCC2)c2ccccc2)cc1 (configuration not stated) | 41.7*
c1ccc(SCc2nc(-c3ccccn3)no2)cc1 | 0.8

Individual results from the results shown.
For H5N1 CPE, O=C(NCC1CCCO1)c1c(O)c2cccc3c2n(c1=O)CCC3 (configuration not stated) has 0.8
For H5N1 CPE, COc1ccc(OC)c(-n2c(CNC3CCN(Cc4ccccc4)CC3)nc3ccccc3c2=O)c1 has 1.9
For H5N1 CPE, COc1nnc(-c2ccc(N3CCCCC3)c(NC(=O)C3CCCCC3)c2)c2ccccc12 has 5.3
For H5N1 CPE, Cc1ccc(-c2sc(C)nc2CC(=O)O)cc1 has 0.6
For H5N1 CPE, CC(=O)N1CCC(C(=O)c2ccc(Cl)cc2)CC1 has 0.7
For H5N1 CPE, CSC(=CC(=O)c1ccccc1)SC has 4.4

Continuation.
Structure | H5N1 CPE
Cc1ccc(CNC(=O)C2CCCN(S(=O)(=O)c3cnc[nH]3)C2)cc1 (configuration not stated) | 0.5
COC(=O)Cc1ccc(NC(=O)c2cccs2)cc1 | 1.1
CCCCCCC(=O)Nc1cc2c(C)cc(=O)oc2cc1C | 0.6
COC(=O)c1ccc(COC(=O)c2c(C)nn(Cc3ccccc3Cl)c2Cl)o1 | i
COc1ccc(CC(NC(C)=O)C(=O)NC2CCN(S(=O)(=O)c3cccc4ccccc34)CC2)cc1OC (configuration not stated) | 0.3
CCOC(=O)c1cc(C(C)=O)c(=O)n(C)c1N | 0.3
COc1ccc(NC(=O)c2cnc(C)cn2)c2ncccc12 | 5.0
Cc1cccc(Nc2nc(N)nc(CSc3nccn3C)n2)c1 | 0.1
Oc1ccccc1-c1n[nH]c(=S)n1Cc1ccco1 | i
O=C(N/N=C/c1ccco1)c1ccc(Br)o1 | 1.0
O=c1oc2ccccc2cc1NCc1ccccc1O | 2.3
O=C(Nc1nccs1)c1ccc(CSc2nnnn2-c2ccccc2)cc1 | i

(listing goes on)
Structure | H5N1 CPE
N=c1c(C(=O)NCc2ccc(F)cc2)cc2c(=O)n3ccccc3nc2n1CCCN1CCOCC1 | i
CCCn1c(SCC#N)nc2c(c1=O)C1(CCCC1)Cc1ccccc1-2 | 2.0
Cc1ccc(N2CC(c3nc4ccccc4[nH]3)CC2=O)c(C)c1 (configuration not stated) | 1.9
CSC1=N/C(=C\c2ccc(C)o2)C(=O)S1 | 1.4
Cc1cccc(-c2nc(CN3CCCC(C(=O)NC4CCCCC4)C3)c(C)o2)c1 (configuration not stated) | 0.7
Cc1cc(=S)cc(C)n1CCCO | i
COc1cccc(/C=N/NC(=O)c2c(-c3ccccc3)noc2C)c1 | i
CCN(CC)S(=O)(=O)c1cccc2c(N(C)C)cccc12 | 0.5
CCC(CC)C(=O)Nc1ccccc1NC(C)=O | 0.6
COc1ccccc1NC(=O)CSc1ccc2nnc(-c3cccnc3)n2n1 | 4.7
c1ccc(-c2nnc(CN3CCC4(CC3)OCCO4)o2)cc1 | i
Cc1cc(C)nc(N2CCC(C(=O)Nc3ccc4c(c3)OCO4)CC2)n1 | 0.8

Additional structures:
SMILES | H5N1 CPE
CCc1c(C)sc(NC(=O)CCc2ccc(OC)cc2)c1C(N)=O | i
O=C(NCCc1c[nH]c2ccccc12)Nc1ccccc1 | 0.6
O=c1[nH]nc(CSCc2ccccc2Cl)[nH]1 | 0.9
O=C(Cc1ccc(Br)cc1)N1CCCCCC1 | 1.1
CNP1(NC)=NC(C(F)(F)F)=NC(C(F)(F)F)=N1 | 0.4
CCOc1ccc2nc(NCCCNS(=O)(=O)c3ccccc3)c(C#N)cc2c1 | 2.7
O=S(=O)(Cc1nc2ccccc2s1)c1ccccc1 | 0.8
Cc1cc(C(=O)CN2C(=O)NC3(CCCc4ccccc43)C2=O)c(C)n1Cc1cccs1 (configuration not stated) | 2.6
CCOc1ccc(NC(=S)NC(=O)/C=C/c2ccc(C)cc2)c([N+](=O)[O-])c1 | i
COc1ccc(C(=O)Nc2nnc(Cc3cccs3)s2)cc1OC | i
O=C(CCS(=O)(=O)c1ccccc1)Nc1nc2c(s1)COc1ccccc1-2 | 1.1
COc1ccc(C2C3=C(CC(C)(C)CC3=O)Oc3ncn(Cc4ccccc4)c(=N)c32)cc1 (configuration not stated) | i
Cc1ccc(F)c(NC(=O)C2CCCCC2C(=O)O)c1 (configuration not stated) | i
O=C(NC1CCCCC1)N1CCCCCCC1 | 0.0
CC(C)(C)c1ccc(C(=O)CSc2n[nH]c(=O)[nH]c2=O)cc1 | i
O=c1c2ccccc2nc2n1C(CSCc1ccc(Cl)cc1)CS2 (configuration not stated) | 8.9
CCOC(=O)Cn1c(=O)n(CC(=O)OCC)c2ccccc21 | 0.8
S=c1[nH]nc(-c2cc(-c3ccco3)[nH]n2)n1-c1ccccc1Cl | 1.1
CC(OC(=O)CN(C)S(=O)(=O)c1ccc(Cl)cc1)C(=O)Nc1ccc(N2CCOCC2)cc1 (configuration not stated) | i
CC1CCc2c(C(=O)N3CCN(S(=O)(=O)c4cccs4)CC3)csc2C1 (configuration not stated) | 1.3

New compounds follow:
SMILES | H5N1 CPE
Cc1cc(C(=O)NCC2CCCO2)n(-c2ccccc2)n1 (configuration not stated) | 1.8
CCCC(=O)NC(Nc1ccc(S(=O)(=O)Nc2cc(C)on2)cc1)(C(=O)OCC)C(F)(F)F (configuration not stated) | 0.0
CCN(CC)CCNc1nc2c(c(=O)n(C)c(=O)n2C)n1C/C=C(/C)Cl | i
O=S(=O)(Nc1ccccc1F)c1ccc2nsnc2c1 | i
Cc1ccc(-n2c(C)cc(C(=S)N3CCOCC3)c2C)cc1C | i
CCOc1ccc(N(CC(=O)Nc2ccccc2C(=O)NCc2ccco2)S(C)(=O)=O)cc1 | 0.4
CCCNC1=C(C)C(=O)CC1 | 0.7
CCOC(=O)c1ccc(N2C(=O)CC(N3CCN(C(=O)c4ccco4)CC3)C2=O)cc1 (configuration not stated) | 0.2
Cc1ccc(-c2nnc(SCC(=O)N3CCCC3)o2)cc1 | i
CC/C(=N\NC(=O)c1ccc(-c2ccccc2)cc1)C12CC3CC(CC(C3)C1)C2 | 0.1
COc1ccccc1CNC(=O)CCC(=O)Nc1nnc(C)s1 | i
O=C(Cn1c(=O)c2c(ncn2Cc2ccccc2)n(Cc2ccccc2)c1=O)N1CCCC1 | i
Cc1ccccc1C(=O)NC1CCN(Cc2nnnn2Cc2ccccc2)CC1 | 0.2
O=C(NCC(c1cccnc1)N1CCN(c2ccc(F)cc2)CC1)C1CCCCC1 (configuration not stated) | 3.6
Cc1ccc(-n2c(Cc3cccs3)nnc2SCC(N)=O)cc1 | 1.5
Cc1ccc(SCc2ccc(C(=O)Nc3cccc([N+](=O)[O-])c3)cc2)cc1 | i
Cc1cnn(C(=S)NCc2ccc(Cl)cc2)c1 | 0.4
Cc1ccc(NS(=O)(=O)c2ccc(CCC(=O)NC3CC3)cc2)cc1 | i
CC(=O)/C(CN1CCCCC1)=N\O | i
O=C(NC1CCCCC1)c1ccc(CS(=O)(=O)Cc2ccccc2F)o1 | i

2 records drawn at random from the list so far:
SMILES | H5N1 CPE
Cc1ccc(NS(=O)(=O)c2ccc(CCC(=O)NC3CC3)cc2)cc1 | i
Cc1ccc(-n2c(Cc3cccs3)nnc2SCC(N)=O)cc1 | 1.5

Following part:
SMILES | H5N1 CPE
CC(=O)NCCc1cc2ccc(C)cc2[nH]c1=O | i
CC(Sc1nc(-c2ccccc2)cc(=O)[nH]1)C(=O)O (configuration not stated) | i
CCCN1CCN(C(=O)CCCn2c(C)c3cnn(-c4ccccc4)c(=O)c3c2C)CC1 | 1.6
Cc1occc1C(=O)Nc1ccccc1C(=O)O | 0.1
CCC(CC)C(=O)Nc1cccc(C(=O)N2CCCC2)c1 | i
CCCc1nn(-c2cc(Cl)ccc2OC)c2c1C(=O)CC(C)(C)C2 | i
Cc1occc1C(=O)Nc1ccc(Br)cc1F | 22.2
CCCCn1c(=O)n(CC(=O)NCc2ccc(C)cc2)c(=O)c2c1nc(CO)n2CCC | i
O=C(c1ccccc1Oc1ccccc1)N1CCN(c2ccccc2F)CC1 | 0.8
CCOc1ccc(/C(O)=C2/C(=O)C(=O)N(CC3CCCO3)C2c2ccc(C)o2)cc1 (configuration not stated) | i
COc1cc(C(=O)N(Cc2ccc(N(C)C)cc2)C2CCS(=O)(=O)C2)cc(OC)c1OC (configuration not stated) | i
Cn1c(-c2cc(Br)ccc2O)n[nH]c1=S | 1.7

High-throughput results deposited in PubChem BioAssay by SRMLSC.

An excerpt; count on the stated rates, not on these rows.
